Screens as filed in PubChem BioAssay.
Sa ugtP lethal – compounds lethal to S. aureus RN4220 ugtP deletion mutant | OD600 growth, 16 h; some inactives read as strong as hits | growth inhibition, % (concentration not given with the values) | hit rate 0.54% among 330,000 | AID 1259309;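 active means z-score under -3 and OD600 up to 0.15 on both plates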;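 further: plate controls were untreated wells for no effect and antibiotic for full effect; wells of about 80 µL received 100 nL stock; the first replicate is given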
Sa RN4220 lethal – kills Staphylococcus aureus RN4220; inhibition, % (concentration not given with the values); hit rate 0.33% among 330,000; S. aureus RN4220 growth, OD600, 16 h;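 active means z-score of -3 or lower and OD600 up to 0.18 on both plates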;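 further: plate controls were untreated cells for no effect and reference antibiotic for full effect; stock transfer was 100 nL into about 80 µL; one replicate is shown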
BJeLR viability – kills HRASV12-expressing BJeLR cells. BJeLR (HRASV12) viability, CellTiter-Glo ATP luminescence, 48 h; reference of the scale not given here. inhibition, % (no concentration beside the values). hit rate 0.17% among 300,000;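 active means replicate mean above 50%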;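 further: 50 nL library stock added to about 25 µL; numbers are from one replicate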
PrP UTR inh – suppresses PrP 5' UTR mRNA reporter expression. hit rate 0.35% among 340,000. AID 488862. cell-based PrP 5' UTR mRNA reporter, plate reader. inhibition, % (concentration not given with the values);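 active means every replicate at 50% or more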;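 further: 0 = median of the neutral control wells; tested in H4 reporter cells; numbers are from one replicate; inactives centre near -14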
Mtb hypoxia inh – Mtb hypoxia fluorescent reporter inhibition. M. tuberculosis hypoxia-regulated fluorescent reporter, fluorescence. hit rate 0.1% among 300,000. fluorescence inhibition, % (test concentration not listed). AID 1159583;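 active means 35 to 45% if threefold the growth effect, above 45% if 1.5-fold the growth effect; inactive means the rest, general growth blockers included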;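 further: wells of about 50 µL received 100 nL stock; 0% = vehicle wells and 100% = reference inhibitor wells; whole bacteria with a GFP reporter of the hypoxia response; strong numbers were not always called active; many hits fall short of the cut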
Bead autofluor – counter-screen for toxin protease inhibitors: compound fluorescence. compound autofluorescence counterscreen, microsphere flow cytometry; hits give high values. fluorescence intensity (concentration not given with the values). hit rate 3.1% among 360,000;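 active means at least 3 SD above the mean of all compounds, about 16000 in these data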;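 further: 100 nL of 1 mM stock went into each well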
Mtb hypoxia inh growth – also measured in Mtb hypoxia inh; calls as there; growth inhibition, %; measured here: M. tuberculosis growth (absorbance);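 0% = vehicle and 100% = reference antibiotic; read after six days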
* hit, by the source's call; . = no result given. Random draw from the library; overall some 3.9% were active at least once.

[1] Cc1cc(NN=C2CC(C)CC(C)(C)C2)nc2ccccc12 (stereo unspecified)
[2] O=C(CSc1nnc(-c2ccncc2)o1)N1CCCC1
[3] CCN(C(=S)Nc1cccnc1)c1cccc2ccccc12
[4] CC(On1nnc2ccccc21)C(=O)N1CCN(Cc2ccccc2)CC1 (stereo unspecified)
[5] Cc1ccc(-c2n[nH]c(=S)n2N=Cc2ccncc2)cc1
[6] COc1ccccc1N1CCN(CC(O)=C(C#N)c2nc(-c3ccccc3)cs2)CC1
[7] O=C(NNC(=S)NC(=O)c1ccccc1)c1ccc(O)cc1
[8] CN(CC(=O)Nc1ccccc1C(=O)N1CCCC1)S(=O)(=O)c1ccc(Br)cc1
[9] COC(=O)Cc1c(C)c2ccc(OCC(=O)N3CCCC(C)C3)c(C)c2oc1=O (stereo unspecified)
[10] CC(C)(C)CC(=O)NC(=S)Nc1ccccc1[N+](=O)[O-]
screen / no.,1,2,3,4,5,6,7,8,9,10
Bead autofluor,.,3936,3500,5269,.,.,3662,24180*,5351,5615
Sa ugtP lethal,-3,-1,3,8,0,13,15,1,4,12
Mtb hypoxia inh growth,19,2,5,6,12,2,10,7,5,19
PrP UTR inh,.,-34,-14,-11,.,.,-17,-16,-8,-22
BJeLR viability,.,-8,-6,.,.,.,2,4,-17,4
Sa RN4220 lethal,-9.4,4.9,6.0,4.1,7.4,1.4,6.9,2.7,-1.7,7.0
Mtb hypoxia inh,-1,5,9,12,9,10,-6,0,4,3

2 entries from above, bar-delimited:
No. | canonical_smiles | Bead autofluor | Sa ugtP lethal | Mtb hypoxia inh growth | PrP UTR inh | BJeLR viability | Sa RN4220 lethal | Mtb hypoxia inh
5 | Cc1ccc(-c2n[nH]c(=S)n2N=Cc2ccncc2)cc1 | . | 0 | 12 | . | . | 7.4 | 9
6 | COc1ccccc1N1CCN(CC(O)=C(C#N)c2nc(-c3ccccc3)cs2)CC1 | . | 13 | 2 | . | . | 1.4 | 10

(continued)
[11] CC(C)(C)C(=O)NC(=S)Nc1cccc(C(=O)O)c1
[12] CCOc1cc(N2CCOCC2)c(OCC)cc1NC(=O)c1cc(C)nc2ccccc12
[13] O=C(O)C1CCN(C(=O)NC2CCCCC2)CC1
[14] COc1cccc(/C=C2\SC(=S)N(NS(=O)(=O)c3ccc(C)cc3)C2=O)c1OC
[15] CCc1nnc(NC(=O)c2cc(-c3ccncc3)nc3ccccc23)s1
[16] CC1CCCN(C(=O)c2ccc3c(c2NCCO)C(=O)c2ccccc2C3=O)C1 (stereo unspecified)
[17] Cc1ccc(NC(=O)CSC2=NN3CCCC(=O)N=C3S2)c(C)c1
[18] CC(C)(O)C(=O)NN=Cc1ccc(OC/C=C/c2ccccc2)cc1
[19] CN(CCOC(=O)/C=C/c1ccco1)Cc1ccccc1
[20] COC(=O)C(CO)NC(=O)C(C)NC(=O)CNC(=O)OCc1ccccc1 (stereo unspecified)
screen / no.,11,12,13,14,15,16,17,18,19,20
Bead autofluor,4439,3596,.,3925,5893,2813,5820,.,4962,4377
Sa ugtP lethal,13,0,-1,.,6,-8,16,-6,-2,-2
Mtb hypoxia inh growth,13,5,5,.,-5,.,9,5,3,12
PrP UTR inh,-46,15,-5,1,0,-11,-22,.,-20,-25
BJeLR viability,0,-14,11,-3,-18,4,4,.,.,1
Sa RN4220 lethal,5.1,-8.1,6.4,.,3.8,25,4.4,-2.4,4.3,4.3
Mtb hypoxia inh,14,5,7,.,1,.,-2,-8,9,6

Next section; it opens with the 2 that closed the last part.
[19] CN(CCOC(=O)/C=C/c1ccco1)Cc1ccccc1
[20] COC(=O)C(CO)NC(=O)C(C)NC(=O)CNC(=O)OCc1ccccc1 (stereo unspecified)
[21] CNC(=O)c1nc(C)n(-c2cc(Cl)cc(Cl)c2)n1
[22] CCOc1cc(/C=N/NC(=O)c2ccccn2)ccc1OC(=O)c1ccc(F)cc1
[23] CCOC(=O)N1CCC(NC(=O)CCN2C(=O)COc3ccccc32)CC1
[24] COc1ccc(C(C)=O)cc1COc1ncnc2ccccc12
[25] O=C(c1ccco1)n1nc(-c2ccc(Cl)cc2)nc1NCc1ccco1
[26] CC(C)(C)OC(=O)N1CCN(C(=O)OCC2c3ccccc3-c3ccccc32)CC1C(=O)O (stereo unspecified)
[27] CCOC(=O)c1oc2ccccc2c1COC(=O)CNC(=O)c1ccco1
[28] CCOC(=O)c1sc(NC(=O)CN2CC(C)OC(C)C2)nc1C (stereo unspecified)
[29] O=C(O)CCN1C(=O)c2ccc(NC(=O)CSc3ccccc3)cc2C1=O
[30] OC(COc1ccccc1Br)CN1CCNCC1 (stereo unspecified)
screen / no.,19,20,21,22,23,24,25,26,27,28,29,30
Bead autofluor,4962,4377,6044,6181,5329,4657,5262,3925,5175,3892,2369,.
Sa ugtP lethal,-2,-2,-2,.,-5,4,-10,.,4,4,3,15
Mtb hypoxia inh growth,3,12,5,.,-10,-4,4,.,12,10,5,2
PrP UTR inh,-20,-25,-7,-10,-15,-15,-72,-18,-14,-8,-15,5
BJeLR viability,.,1,1,-5,6,-12,-4,-7,-1,-4,-1,5
Sa RN4220 lethal,4.3,4.3,0.1,.,0.9,0.4,4.1,.,1.0,3.7,3.6,5.8
Mtb hypoxia inh,9,6,1,.,-17,-2,15,.,8,-1,5,-5

Single records, from the list above. Screens in order: Bead autofluor, Sa ugtP lethal, Mtb hypoxia inh growth, PrP UTR inh, BJeLR viability, Sa RN4220 lethal, Mtb hypoxia inh
`COc1ccc(C(C)=O)cc1COc1ncnc2ccccc12` reads 4657, 4, -4, -15, -12, 0.4, -2
`CCOC(=O)c1sc(NC(=O)CN2CC(C)OC(C)C2)nc1C` (stereo unspecified) reads 3892, 4, 10, -8, -4, 3.7, -1
`CCOc1cc(/C=N/NC(=O)c2ccccn2)ccc1OC(=O)c1ccc(F)cc1` reads 6181, ., ., -10, -5, ., .
`OC(COc1ccccc1Br)CN1CCNCC1` (stereo unspecified) reads ., 15, 2, 5, 5, 5.8, -5
`CC(C)(C)OC(=O)N1CCN(C(=O)OCC2c3ccccc3-c3ccccc32)CC1C(=O)O` (stereo unspecified) reads 3925, ., ., -18, -7, ., .

Additional results follow:
[31] CCOc1cc2c(cc1OC)C(NC(=O)C(F)(F)F)CC2=O (stereo unspecified)
[32] COc1ccccc1CCNS(=O)(=O)c1cc2c3c(c1)CCN3C(=O)CC2
[33] CC(C)(C)n1nnnc1C(c1cccnc1)N1CCOCC1 (stereo unspecified)
[34] CC(SCc1ccccc1)C(=O)NC1CCCC1 (stereo unspecified)
[35] C=CCn1c(SCC(=O)Nc2nncs2)nnc1-c1ccco1
[36] O=C(O)c1ccc(N2C(=O)CC(N3CCN(c4cccc(Cl)c4)CC3)C2=O)cc1 (stereo unspecified)
[37] S=c1[nH]nc(C2CCCCC2)n1/N=C/c1ccc(Cl)cc1
[38] CC(C)NC(=O)N(C)CC1Oc2c(NS(=O)(=O)c3ccc(F)cc3)cccc2C(=O)N(C(C)CO)CC1C (stereo unspecified)
[39] O=c1oc(Nc2ccc(F)cc2)nc2ccccc12
[40] Cc1ccc(/C=N/NC(=O)C2CC(=O)N(c3ccccc3)C2)s1 (stereo unspecified)
screen / no.,31,32,33,34,35,36,37,38,39,40
Bead autofluor,6581,5210,3997,4647,5038,3674,3049,.,2456,2782
Sa ugtP lethal,2,5,4,1,3,7,.,3,-10,.
Mtb hypoxia inh growth,9,6,2,.,0,1,.,10,-6,.
PrP UTR inh,-14,-28,-14,-28,-16,-3,-1,.,-21,-14
BJeLR viability,0,3,-9,-3,2,-2,0,.,2,9
Sa RN4220 lethal,3.9,1.7,2.4,0.1,2.4,4.3,.,5.3,-1.8,.
Mtb hypoxia inh,5,3,15,.,3,5,.,17,-4,.

[41] Cc1cc(C)cc(NC(=O)N2CCC(C(=O)c3ccc(F)cc3)CC2)c1
[42] CC1CC(C)(C)CC2(C1)NC(=O)N(CC(=O)Nc1ccc(N3CCCCC3)cc1)C2=O (stereo unspecified)
[43] CCOc1c(Br)cc(/C=N\NC(=O)c2ccccc2)cc1OC
[44] C[N+]1([O-])C2Cc3cc4c(cc3C1Cc1cc3c(cc12)OCO3)OCO4 (stereo unspecified)
[45] O=c1[nH]c(NN=Cc2cc3c(cc2[N+](=O)[O-])OCO3)nc2ccccc12
[46] Cc1ccc(S(=O)(=O)N2CCOCC2)cc1C(=O)OCC(=O)N(Cc1ccccc1)C(C)C
[47] CCOC(=O)N1CCN(C(=O)CSc2ccccc2)CC1
[48] O=C1NC(=O)C2(CCCCC2C2CCCCC2)N1 (stereo unspecified)
[49] O=S(=O)(NCCOc1ccc(F)cc1)c1ccc2c(c1)OCCO2
[50] O=C(CCC(=O)OCc1ccc(C(=O)Oc2ccccc2)cc1)Nc1cccc2ccccc12
screen / no.,41,42,43,44,45,46,47,48,49,50
Bead autofluor,4769,5491,2514,.,.,8442,23877*,2847,4248,3094
Sa ugtP lethal,-4,6,.,1,9,5,1,16,-6,-11
Mtb hypoxia inh growth,-3,-5,.,13,3,5,6,8,9,-2
PrP UTR inh,-15,-14,-20,.,.,-7,-32,-4,-3,-20
BJeLR viability,12,5,3,.,.,.,-1,.,-14,-4
Sa RN4220 lethal,0.8,3.5,.,0.5,2.3,3.3,1.9,3.1,0.4,7.9
Mtb hypoxia inh,-4,13,.,0,-8,4,6,12,-1,-4

[51] Cc1ccccc1CN1C(=O)Nc2ccccc2C(=O)N1C(C)(C)C
[52] CCCOc1ccc(C(C)=O)cc1CSCCC#N
[53] Cc1ccc(C)c(S(=O)(=O)Nc2ccc(O)c(Sc3ncn[nH]3)c2)c1
[54] CCN1C/C(=C\c2cccc([N+](=O)[O-])c2)C(=O)/C(=C/c2cccc([N+](=O)[O-])c2)C1
[55] CC(C)N(C(=O)[C@H]1C[C@H](CC(=O)NCc2cccc(C(F)(F)F)c2)C(=O)N2CCc3c([nH]c4cc(CCC(=O)N(C)C)ccc34)[C@]12C)C(C)C
[56] Cc1cc(SCC(=O)NCCN2C(=O)CSC2=O)nc2ccccc12
[57] CN1CCC(N(C)C(=O)c2cc(S(=O)(=O)N3CCOCC3)ccc2Cl)CC1
[58] COc1ccc(NC(=S)NC(=O)Cc2ccccc2)c(OC)c1
[59] C=CCOc1ccc(C(=O)n2cc(C(=O)OC)c3ccccc32)cc1
[60] C=CCc1c(OC)ccc2ccc(=O)oc12
screen / no.,51,52,53,54,55,56,57,58,59,60
Bead autofluor,2460,4702,4811,9945,3445,2237,6544,.,3502,3356
Sa ugtP lethal,5,-2,0,8,-8,4,0,14,9,4
Mtb hypoxia inh growth,.,.,10,21,7,4,7,-1,9,8
PrP UTR inh,-6,-15,-35,63*,-8,-10,-11,-31,5,-12
BJeLR viability,-5,-4,9,.,.,3,.,-16,1,-2
Sa RN4220 lethal,8.9,2.1,5.2,7.5,1.1,5.4,-1.3,0.0,0.2,11
Mtb hypoxia inh,.,.,15,12,-13,11,10,7,6,13

[61] CCOc1ccc(NC(=O)CSc2nc3c(c(=O)n2-c2ccccc2OC)SCC3)cc1
[62] CC1CCc2c(nc3ncnn3c2Nc2ccc(OC(F)(F)F)cc2)C1 (stereo unspecified)
[63] COc1ccc(Nc2ccc([N+](=O)[O-])cn2)cn1
[64] CCCC1N2CC3([N+](=O)[O-])CN1CC([N+](=O)[O-])(C2)C3(C)C (stereo unspecified)
[65] CCCC(=O)c1cc2c(cc1NC(=O)c1ccccc1F)OCCO2
[66] COc1cccc2cc(C(=O)NC(C)C3CCCO3)c(=O)oc12 (stereo unspecified)
[67] CCN1CCN(c2ccc(S(=O)(=O)N3CCOCC3)cc2NC(=O)C(C)Oc2ccc(Cl)cc2)CC1 (stereo unspecified)
[68] CCNc1c([N+](=O)[O-])ncn1C
screen / no.,61,62,63,64,65,66,67,68
Bead autofluor,6392,5258,3836,1930,3474,16163*,5482,2790
Sa ugtP lethal,-9,-1,14,11,5,1,-1,6
Mtb hypoxia inh growth,-3,.,0,-3,8,-4,-10,.
PrP UTR inh,-4,-4,-2,-2,-17,-34,-9,-14
BJeLR viability,4,-5,-1,-1,-12,2,1,1
Sa RN4220 lethal,-4.6,-4.7,3.0,2.3,3.9,2.8,1.0,2.2
Mtb hypoxia inh,-9,.,6,5,12,5,4,.
